RGS16-Gao = regulators of human RGS16-Galphao interaction; O15492+P09471; bead-based flow cytometry RGS16-Galphao binding, fluorescence; actives lie on both sides; binding response (% of control), % at 10 µM; hit rate 0.38% among 220,000; AID 1441;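 active means below 25% or above 175%, edge rows of some plates excepted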;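 further: Galphao activated by GDP with aluminum fluoride before binding; 100% = wells without compound and 0% = beads without RGS; some results beyond the cut were filed as inactive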
GALR2 agonist = activates the human galanin receptor 2; activation, %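 (tested at 5 µM)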; AID 803; GALR2-expressing cells, agonist activation read-out; O43603; hit rate 0.48% among 140,000;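 active means above mean plus 3 SD of all compounds, about 5% in these data, not always enough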;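 further: 0% = vehicle buffer wells and 100% = reference agonist at full effect; tested in CHO reporter cells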
PKD1 inh = PKD1 (human) kinase inhibition; Q15139; inhibition, %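 (about 10 µM by stock and volumes)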; AID 797; hit rate 0.056% among 200,000; PKD1 kinase fluorescence polarization assay;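 active means inhibition of 50% or more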;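 further: controls were vehicle for no effect and a reference inhibitor for full effect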
Target sequence (Q15139 whole entry, looked up): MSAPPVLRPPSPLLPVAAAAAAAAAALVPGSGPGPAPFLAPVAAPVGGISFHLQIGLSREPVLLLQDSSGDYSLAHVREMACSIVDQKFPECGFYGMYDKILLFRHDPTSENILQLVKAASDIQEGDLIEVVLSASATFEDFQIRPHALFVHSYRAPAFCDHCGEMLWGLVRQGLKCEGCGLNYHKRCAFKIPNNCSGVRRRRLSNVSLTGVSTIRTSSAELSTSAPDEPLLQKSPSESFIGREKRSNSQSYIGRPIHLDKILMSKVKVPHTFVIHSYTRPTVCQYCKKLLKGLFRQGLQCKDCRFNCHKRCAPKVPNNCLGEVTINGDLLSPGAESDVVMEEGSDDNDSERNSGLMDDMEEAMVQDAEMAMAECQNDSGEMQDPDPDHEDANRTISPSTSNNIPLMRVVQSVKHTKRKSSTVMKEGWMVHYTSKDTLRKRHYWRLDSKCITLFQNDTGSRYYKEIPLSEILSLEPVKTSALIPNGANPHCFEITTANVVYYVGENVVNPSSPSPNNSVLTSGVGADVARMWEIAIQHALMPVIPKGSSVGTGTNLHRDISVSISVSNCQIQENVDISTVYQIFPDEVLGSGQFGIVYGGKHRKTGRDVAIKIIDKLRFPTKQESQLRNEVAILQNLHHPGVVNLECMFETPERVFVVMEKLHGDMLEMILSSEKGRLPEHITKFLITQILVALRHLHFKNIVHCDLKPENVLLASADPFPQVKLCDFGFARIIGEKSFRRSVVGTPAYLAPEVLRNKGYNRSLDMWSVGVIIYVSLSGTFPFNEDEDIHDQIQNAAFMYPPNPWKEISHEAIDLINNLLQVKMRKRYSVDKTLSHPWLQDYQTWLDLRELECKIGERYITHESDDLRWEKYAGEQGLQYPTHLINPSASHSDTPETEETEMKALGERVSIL
HSV augment = HSV replication enhancement; HSV replication augmentation in cells, fold increase; maximum fold increase; hit rate 0.005% among 220,000;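 active means peak rise of 1.5-fold or more in the series; tested in PC3 cells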;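 further: first round at 10 µM; read as green reporter fluorescence; hits show the peak of a series up to 25 µM; 1 = signal of infected wells without compound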
INS promoter inh = TRM-6 insulin promoter activity inhibition. TRM-6 cells (human fetal islet line), insulin promoter-eGFP reporter, imaging; reporter expression induced with tamoxifen. inhibition, % at 2 µM. hit rate 0.9% among 130,000;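 active means inhibition above the mean plus 3 SD, with well images judged a real hit on visual review, cut at about 60% in these data, passing the limit was not always enough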
INS promoter inh cell count = further read-out of INS promoter inh, marked with its call; normalized cell count, %; measured here: cell count, toxicity; reference of the scale not given here;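 cells exposed to compound for 48 h; stained nuclei by imaging scaled within each plate; lower means fewer cells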
HSV augment primary fold = further read-out of HSV augment, marked with its call; fold increase; compound at 10 µM; measured here: primary screen fold increase 10 uM; tested in PC3 cells;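 GFP signal in the first replicate; 1 = infected wells without compound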
Starred values were filed as active, the others as inactive; i = inactive; . = no result given.

nr	Compound	RGS16-Gao	GALR2 agonist	PKD1 inh	HSV augment
1	CN(C)/C=C(/C(=O)c1ccc(Cl)cc1Cl)S(=O)(=O)c1ccccc1	93	-2.3	4	i
2	CC(C)OP(=O)(OC(C)C)C(O)c1ccc(N(C)C)cc1 (centres undefined)	103	.	.	i
3	O=C(Nc1ccccc1)OC(CN1CCCCC1)C(F)(F)F (centres undefined)	107	-5.4	-4	i
4	O=C(NCc1ccccc1)C1CC2CCCC(C1)C2=O (centres undefined)	105	-3.2	3	i
5	CC(=O)Nc1ccc(NC(=O)CCC(=O)OCC(=O)c2ccc(C)c([N+](=O)[O-])c2)cc1	90	.	5	i
6	O=C(CCc1nc(-c2ccccc2)c(-c2ccccc2)o1)OCc1ccc(Br)cc1	101	-1.3	-1	i
7	CCCC(CCC(=O)NC1CCCCC1)C(=O)O (centres undefined)	118	-0.9	3	i
8	CC(C)S(=O)(=O)c1csc(NC(=O)Nc2cc(Cl)ccc2Cl)c1Cl	103	.	.	i
9	Cc1ccc(C(=O)Nc2nccs2)cc1S(=O)(=O)N1CCCCC1	102	-1.9	-2	i
10	Cc1ccc(NC(=S)N2CCSC2c2cccs2)cc1 (centres undefined)	52	.	-2	i
11	Cc1ccc(/C=N/NC(=O)c2cc(C3CC3)nc3ccccc23)o1	103	1.0	-7	i
12	O=C(Cn1cnc2ccccc2c1=O)N/N=C/c1ccc(Br)cc1	94	.	.	i

nr	HSV augment primary fold	INS promoter inh	INS promoter inh cell count
1	0.92	.	.
2	0.93	.	.
3	1	-20	142
4	0.93	18	117
5	1.2	.	.
6	0.9	33	50
7	0.84	-290	60
8	0.84	.	.
9	0.92	.	.
10	1.1	33	71
11	0.9	-7	93
12	0.98	.	.

Remaining list, next part
nr	Compound	RGS16-Gao	GALR2 agonist	PKD1 inh	HSV augment
13	CC(C)(C)c1ccc(/C=C/C(=O)Nc2nncs2)cc1	102	-1.3	-3	.
14	O=C(NCCCCc1ccccc1)C1CC(c2cccc([N+](=O)[O-])c2)=NO1 (centres undefined)	100	0.3	4	i
15	O=C(Nc1cccc(C(F)(F)F)c1)c1n[nH]c(Cn2cncn2)n1	107	-2.9	0	i
16	Cc1cc(C)nc(N(C#N)Cc2ccc(Br)cc2)n1	95	-0.7	-4	i
17	O=C(Nc1cc(C(F)(F)F)ccc1Cl)c1cc2nc3c(c(C(F)(F)F)n2n1)CCCC3	100	0.7	-2	i
18	Cc1cc(=O)[nH]c(SCC2COC3(CCCCC3)O2)n1 (centres undefined)	113	-1.9	-5	i
19	Cc1ccc2nc(Cl)c(C3CC(c4cccs4)=NN3S(C)(=O)=O)cc2c1 (centres undefined)	36	-0.9	4	i
20	O=S(=O)(c1ccc(F)cc1)N1CCN=C1SCc1cccnc1	97	.	2	i
21	CCOC(=O)Nc1ccc(S(=O)(=O)Nn2cnnc2)cc1	96	-1.3	-2	i
22	COC(=O)C1C(=O)NCC1c1ccccc1 (centres undefined)	103	-1.2	-2	.
23	CC1CN(C(=S)SCC(=O)c2ccc(Cl)cc2)CC(C)O1 (centres undefined)	101	0.9	-3	i
24	O=C(NC(=O)N1CCN(c2ccc(F)cc2)CC1)c1ccccc1	107	-2.7	-3	i

nr	HSV augment primary fold	INS promoter inh	INS promoter inh cell count
13	.	0	134
14	1.1	13	132
15	0.92	29	163
16	1	23	109
17	1	-18	109
18	0.99	.	.
19	0.91	14	120
20	0.98	62	57
21	0.92	.	.
22	.	-243	71
23	0.98	.	.
24	0.95	0	117

Molecules above that contain fluorine (five):
nr	Compound	RGS16-Gao	GALR2 agonist	PKD1 inh	HSV augment
3	O=C(Nc1ccccc1)OC(CN1CCCCC1)C(F)(F)F (centres undefined)	107	-5.4	-4	i
15	O=C(Nc1cccc(C(F)(F)F)c1)c1n[nH]c(Cn2cncn2)n1	107	-2.9	0	i
17	O=C(Nc1cc(C(F)(F)F)ccc1Cl)c1cc2nc3c(c(C(F)(F)F)n2n1)CCCC3	100	0.7	-2	i
20	O=S(=O)(c1ccc(F)cc1)N1CCN=C1SCc1cccnc1	97	.	2	i
24	O=C(NC(=O)N1CCN(c2ccc(F)cc2)CC1)c1ccccc1	107	-2.7	-3	i

nr	HSV augment primary fold	INS promoter inh	INS promoter inh cell count
3	1	-20	142
15	0.92	29	163
17	1	-18	109
20	0.98	62	57
24	0.95	0	117

(cont.)
nr	Compound	RGS16-Gao	GALR2 agonist	PKD1 inh	HSV augment
25	COc1cc(S(=O)(=O)N(C)C)ccc1Br	96	-1.3	3	i
26	Cc1ccccc1-n1nnnc1SCC(=O)NCC1CCCO1 (centres undefined)	102	.	2	i
27	CC(=O)c1ccc(-n2nncc2-c2ccc([N+](=O)[O-])cc2)cc1	99	.	-5	i
28	O=C1CSC(c2nn(-c3ccccc3)cc2-c2cc3ccccc3oc2=O)N1Cc1ccco1 (centres undefined)	108	0.3	6	i
29	O=C(Nc1ccc(Cl)c([N+](=O)[O-])c1)ONC1=NCCCCC1	98	.	3	i
30	CC(=O)Nc1ccc(NS(=O)(=O)c2ccc(C)cc2)c([N+](=O)[O-])c1	102	.	2	i
31	C=CCc1cc(Cl)ccc1OCCN1CC(C)OC(C)C1 (centres undefined)	100	.	-4	i
32	COc1c(Cl)cc(Cl)cc1/C=C/C(=O)c1ccc(NC(=O)c2cccs2)cc1	9.2*	0.1	-3	i
33	CN1CCN(c2ccc(NC(=O)c3ccc4c(c3)OCCO4)cc2)CC1	103	.	-7	i
34	CN(CCCC(=O)NCc1ccco1)S(=O)(=O)c1ccccc1	105	-1.4	-1	i
35	CC1CC(C)CN(C(=O)Cn2cc(C=O)c3ccccc32)C1 (centres undefined)	96	.	1	i
36	COc1ccc(C)cc1N(C(=O)c1ccc(F)cc1)c1nc2ccccc2s1	118	-0.9	3	i

nr	HSV augment primary fold	INS promoter inh	INS promoter inh cell count
25	0.61	64	229
26	0.92	.	.
27	1	.	.
28	1.1	-18	132
29	1	-26	102
30	0.98	.	.
31	1	15	106
32	0.55	66	75
33	0.94	.	.
34	0.97	-23	59
35	1.1	.	.
36	1.1	.	.

Given bar-delimited: entries from further up
entry | Structure | RGS16-Gao | GALR2 agonist | PKD1 inh | HSV augment | HSV augment primary fold | INS promoter inh | INS promoter inh cell count
27 | CC(=O)c1ccc(-n2nncc2-c2ccc([N+](=O)[O-])cc2)cc1 | 99 | . | -5 | i | 1 | . | .
28 | O=C1CSC(c2nn(-c3ccccc3)cc2-c2cc3ccccc3oc2=O)N1Cc1ccco1 (centres undefined) | 108 | 0.3 | 6 | i | 1.1 | -18 | 132

(cont.)
nr	Compound	RGS16-Gao	GALR2 agonist	PKD1 inh	HSV augment
37	CCN(CC)C(=O)CSc1nnc(-c2ccccc2)n1N	104	-2.3	-2	i
38	CCOc1cc(C(=S)N2CCCCC2)ccc1OCC(=O)NCc1ccccc1	-5	1.3	-2	i
39	CC(=O)Nc1ccc(NC(=O)C(C)Sc2nnc(-c3cccs3)o2)cc1 (centres undefined)	102	.	.	i
40	CCc1ccc(CNC(=O)C2CC(=O)N(CCc3ccc(C)cc3)C2)cc1 (centres undefined)	97	-3.6	1	i
41	CCOC(=O)c1c(NC(=O)CN2CCCCC2)sc2c1CCN(C(=O)OCC)C2	101	0.7	5	i
42	CCOC(=O)c1cnn(-c2ccccc2)c1NC(=O)C(F)(F)C(F)(F)C(F)(F)F	101	-0.1	-7	i
43	Cc1cc(=O)n2ccsc2n1	100	-1.1	-4	i
44	N#CCc1ccc(Oc2ccc([N+](=O)[O-])cn2)cc1	98	.	.	i
45	O=C(O)CN1CCCCC1	100	.	-5	i
46	O=C(/C=C/N1CCN(Cc2ccccc2)CC1)C(F)(F)F	104	.	-1	i
47	Cn1nnc2c[n+](CC(=O)c3ccc(Cl)cc3)cc(Br)c21	100	.	.	i
48	CCOC(=O)c1sc2nc(CC(C)C)c3c(c2c1N)CCC3	65	0.7	4	i

nr	HSV augment primary fold	INS promoter inh	INS promoter inh cell count
37	1.6	35	112
38	0.81	.	.
39	0.97	.	.
40	0.93	-107	93
41	0.71	.	.
42	0.9	8	76
43	1.1	29	182
44	0.97	.	.
45	1.1	-27	40
46	0.9	.	.
47	0.91	.	.
48	1.3	51	112

Further records
nr	Compound	RGS16-Gao	GALR2 agonist	PKD1 inh	HSV augment
49	COc1ccccc1C1CC(=O)NC(C)=C1C(=O)OC(C)C (centres undefined)	100	.	3	i
50	CCOc1ccc(C(c2c(C)[nH][nH]c2=O)c2c(C)[nH][nH]c2=O)cc1OC	103	-1.9	-4	i
51	O=C1C2CCCN2C(c2ccc(Cl)cc2)N1c1nccs1 (centres undefined)	105	-0.9	-7	i
52	CN(C)S(=O)(=O)c1ccc(N2CCCC2)c(C(=O)N2CCN(c3ccc([N+](=O)[O-])cc3)CC2)c1	101	.	2	i
53	CCOC(=O)C1CCN(C(=O)NS(=O)(=O)c2ccc(C)cc2)CC1	97	.	-1	i
54	CC(O)CN(Cc1ccc(Cl)cc1)CC(C)O (centres undefined)	104	-3.4	-8	i
55	Cc1cc(C)c2ccc(NN)nc2c1O	98	-1.5	-10	i
56	O=C1c2cccc3cccc(c23)C(=O)N1CC1CCN(CC(O)COCc2ccc3c(c2)OCO3)CC1 (centres undefined)	111	-0.3	1	i
57	Cc1cc2c(C)cc(=O)[nH]c2cc1NC(=O)CCl	109	.	.	i
58	CCc1cc(C(=O)OC)c(NC(=O)c2cc(Br)cs2)s1	97	-1.4	3	i
59	CC(C)[C@H](NC(=O)c1ccccc1)C(=O)N1CCc2ccccc21	100	0.0	-1	i
60	Cc1nc(-c2cccs2)ccc1C(=O)O	105	.	2	i

nr	HSV augment primary fold	INS promoter inh	INS promoter inh cell count
49	0.93	.	.
50	1	39	123
51	1	57	168
52	0.93	.	.
53	1.1	.	.
54	1.1	51	87
55	0.85	10	97
56	0.62	-6	75
57	0.94	.	.
58	0.99	8	84
59	1	38	81
60	0.96	-71	120

(cont.)
nr	Compound	RGS16-Gao	GALR2 agonist	PKD1 inh	HSV augment
61	O=C(Nc1nnc(-c2ccccc2SCc2ccccc2F)s1)Nc1ccccc1F	101	-2.1	0	i
62	CCOC(=O)C1(O)CSc2nc3sc(C(=O)O)c(C)c3c(=O)n21 (centres undefined)	99	-0.9	5	i
63	COc1c(C(=O)N2CCCC2)ccc2ccccc12	100	-2.9	-7	i
64	O=C(Nc1cccc(O)c1)c1ccc([N+](=O)[O-])cc1Cl	98	.	-6	i
65	Cc1ccc(N2CCN(/N=C/c3cccs3)CC2)cc1	105	-1.0	8	i
66	CCOC(=O)Cc1nn(Cc2ccccc2)c(=O)c2ccccc12	107	.	-2	i
67	COc1ccc(-n2c(SCC3OCCO3)nc3c(sc(=S)n3-c3ccccc3)c2=O)cc1OC	101	.	-1	i
68	O=C(CCCNS(=O)(=O)c1cccc2nsnc12)NC1CCCCC1	104	-0.9	-11	i
69	O=c1oc2ccccc2c(NCCO)c1[N+](=O)[O-]	100	.	-6	i
70	Cc1ccccc1-c1nc(CSc2nc3c(c(=O)[nH]2)CCC3)c(C)o1	95	-1.7	-12	.
71	Nc1nc2n(n1)C(=O)CC(c1ccccc1)N2 (centres undefined)	101	.	0	i
72	COCc1cc(C)nc(Nc2ccccc2C)c1C#N	99	-2.9	-10	i
73	CC(O)C(NC=C1C(=O)OC(C)(C)OC1=O)C(=O)O (centres undefined)	103	.	-1	i

nr	HSV augment primary fold	INS promoter inh	INS promoter inh cell count
61	0.81	14	88
62	1.2	-207	62
63	0.81	29	39
64	1	.	.
65	0.76	11	77
66	0.96	.	.
67	1.1	-6	114
68	1	.	.
69	1.1	.	.
70	.	-27	88
71	0.99	-25	130
72	0.88	-408	82
73	1	.	.

Screening results deposited in PubChem BioAssay by several laboratories.

Not a hit list. Share with any hit: about 1.3%.
